Bioassay records (PubChem)
MKP-1 inh = blocks human MKP-1 phosphatase activity | P28562 | 0.15% of 65,000 active | AID 374 | recombinant MKP-1, OMFP hydrolysis fluorescence | inhibition, %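 (compounds tested at a single concentration somewhere between 10 and 100 µM)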;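 active means inhibition above about 50%, limit read from the data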;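 further: 0% = DMSO max control wells and 100% = wells with enzyme stopped by NaOH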
Hsp90 inh = displaces geldanamycin probe from tumor Hsp90; P07900; NCI-N417 lysate Hsp90, Cy3B-geldanamycin FP displacement; inhibition, % at 30 µM; 0.35% of 64,000 active; AID 429;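 active means inhibition above 50%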;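 further: 0% = tracer plus lysate wells and 100% = tracer alone without lysate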
Cdc25B block = human M-phase inducer phosphatase 2 inhibition | 0.1% of 65,000 active | AID 368 | inhibition, %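 (compounds tested at 10 µM final in the well)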 | recombinant Cdc25B, OMFP fluorescence Ex485/Em525 | P30305; in the data active means inhibition above about 50%
Her2 expr inh = inhibitors of human Her2 kinase expression; P04626; HER2 level % of control, % at 10 µM; SKBR-3 HER2 protein level, AlphaScreen, 18-24 h; hits give low values; 0.69% of 65,000 active;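 active means HER2 level under 5% of the carrier-only control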;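 further: 100% = DMSO carrier and 0% = 500 nM PU-H71 HSP90 inhibitor; lower value means stronger loss of Her2 protein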
Target sequence (P04626 whole entry, looked up): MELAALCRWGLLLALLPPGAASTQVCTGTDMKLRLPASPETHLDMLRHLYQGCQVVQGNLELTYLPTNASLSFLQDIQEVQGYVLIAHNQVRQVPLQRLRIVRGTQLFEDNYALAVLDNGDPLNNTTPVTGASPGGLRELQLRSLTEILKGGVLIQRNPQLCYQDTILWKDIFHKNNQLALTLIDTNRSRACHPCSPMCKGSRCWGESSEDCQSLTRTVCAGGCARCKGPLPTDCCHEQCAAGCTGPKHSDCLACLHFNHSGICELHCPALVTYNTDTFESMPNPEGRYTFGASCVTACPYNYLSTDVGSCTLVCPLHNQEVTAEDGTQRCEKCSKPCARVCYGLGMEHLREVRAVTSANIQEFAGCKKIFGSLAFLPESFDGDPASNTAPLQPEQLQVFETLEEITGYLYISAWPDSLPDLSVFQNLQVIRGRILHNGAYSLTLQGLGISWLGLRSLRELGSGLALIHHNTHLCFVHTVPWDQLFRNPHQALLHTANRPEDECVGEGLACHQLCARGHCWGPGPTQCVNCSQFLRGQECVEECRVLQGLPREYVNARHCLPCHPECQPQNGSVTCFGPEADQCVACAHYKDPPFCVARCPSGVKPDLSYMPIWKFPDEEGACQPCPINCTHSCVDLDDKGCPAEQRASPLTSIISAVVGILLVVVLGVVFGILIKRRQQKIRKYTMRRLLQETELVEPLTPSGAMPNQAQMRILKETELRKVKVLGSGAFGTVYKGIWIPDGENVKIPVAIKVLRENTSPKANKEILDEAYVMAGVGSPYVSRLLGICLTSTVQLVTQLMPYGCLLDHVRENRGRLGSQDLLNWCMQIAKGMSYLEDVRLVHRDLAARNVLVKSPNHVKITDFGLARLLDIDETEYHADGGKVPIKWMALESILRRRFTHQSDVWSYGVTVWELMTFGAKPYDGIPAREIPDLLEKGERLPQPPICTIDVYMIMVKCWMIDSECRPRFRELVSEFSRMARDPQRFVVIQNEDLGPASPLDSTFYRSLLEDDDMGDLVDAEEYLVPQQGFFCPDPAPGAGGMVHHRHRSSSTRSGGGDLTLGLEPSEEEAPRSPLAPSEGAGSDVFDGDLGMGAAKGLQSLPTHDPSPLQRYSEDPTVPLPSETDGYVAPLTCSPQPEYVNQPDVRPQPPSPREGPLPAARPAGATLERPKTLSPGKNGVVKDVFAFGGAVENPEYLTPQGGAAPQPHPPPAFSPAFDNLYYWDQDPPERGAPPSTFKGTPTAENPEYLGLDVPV
Fluor 339 460 = intrinsic fluorescence of library compounds, ex339/em460 – biochemical, MLSMR library, data from DPM-DC assay, artefact control, profiling panel | compound autofluorescence, ex339/em460 nm, NADH buffer; hits give high values; 1 = no-compound wells, NADH background | fluorescence fold increase at 10 µM | 5.5% of 65,000 active | AID 709;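 active means at 10 µM, mean starting fluorescence two-fold or more over control wells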;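 further: signal is the first read of a kinetic run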
A340 absorber = absorbance at 340 nm | fold change at 10 µM | compound absorbance at 340 nm, fold over control | 65,000 tested, under 10 active;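 active means at 10 µM dose, initial 340 nm absorbance at least 2 fold that of control wells; inactive means change under 2 fold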;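 further: initial absorbance extrapolated from kinetic A340 decline of NADH oxidation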
Active calls of the source: *. The list is partial; rates above refer to the full screens.

SMILES	MKP-1 inh	Hsp90 inh	Cdc25B block	Her2 expr inh	Fluor 339 460	A340 absorber
CC1CCN(C(=O)CN(c2ccc3c(c2)OCO3)S(C)(=O)=O)CC1	11.8	-4.2	-6.3	101.3	1.16	1.04
COC(=O)c1ccc(NC(=O)Nc2ccc(F)cc2)cc1	7.0	-2.2	-4.0	74.8	1.09	1
O=C(c1ccccc1)c1cc(-c2ccccc2)on1	-21.4	-4.3	10.1	102.3	1.04	0.99
c1coc(-c2nnc(SCc3nc4ccccc4[nH]3)o2)c1	-16.2	-2.6	6.5	96.8	1.11	1
CC(C)CN(C(=O)COC(=O)c1cc2ccccc2oc1=O)C1CCS(=O)(=O)C1 (stereo not given)	30.8	-0.6	-1.9	99.1	1.6	1.03
CCCCNc1nc2c(c(=O)n(C)c(=O)n2C)n1Cc1cccc(OC)c1	-21.8	0.5	-4.5	93.3	1.07	1.03
Cn1c(=O)c2c(nc(NCCCN3CCOCC3)n2Cc2cccc(Cl)c2)n(C)c1=O	-13.2	-3.0	6.5	102.6	1.14	1.04
Cn1c(=O)c2c(nc(NCCCN3CCOCC3)n2Cc2ccc(Cl)c(Cl)c2)n(C)c1=O	3.8	-1.9	8.7	69.9	1.13	1.05
O=C(CSCC(=O)NCc1ccco1)NCc1ccco1	-1.8	-2.9	-11.3	103.2	1.04	1.04
Cn1c(=O)c2c(nc(NCCCN3CCOCC3)n2Cc2ccc(Cl)cc2Cl)n(C)c1=O	-13.6	-3.6	7.3	96.4	1.13	1.04
NS(=O)(=O)c1cccc2cccnc12	19.4	-0.4	4.7	95.5	1.11	1.04
Cn1c(=O)c2c(nc(NC3CCCCC3)n2Cc2ccccc2)n(C)c1=O	10.6	-0.7	-5.8	96.7	1.06	1.02
CN1C(=O)CC(N2CCN(CCN=CC3=C(O)CC(C)(C)CC3=O)CC2)C1=O (stereo not given)	-0.2	-3.3	14.0	73.5	1.04	0.99
c1ccc(C(c2nnnn2C2CCCC2)N2CCCCCC2)nc1 (stereo not given)	-26.5	-10.1	-6.1	103.3	1.17	1.02
Cc1cc(=O)n(CCC(=O)O)c2ccccc12	-28.7	-2.7	-12.9	103.6	1.15	1.03
Cn1c(SCC(=O)NCc2ccco2)nnc1-c1ccc(S(=O)(=O)N2CCOCC2)cc1	-15.3	-9.5	1.5	106.0	1.17	1.03
Cn1nc(C(=O)OCC(=O)N2CCc3ccccc32)c2ccccc2c1=O	27.8	0.3	0.7	96.2	0.96	1.02
CCOC(=O)c1sc(=S)n2c1[nH]c(=O)c1ccc(C(=O)OC)cc12	-3.2	7.2	-0.8	78.7	1.11	1
Cn1c(-c2ccc3c(c2)OCO3)cnc1NCc1cccc(Cl)c1	-5.5	12.0	-0.2	206.4	1.21	1.05
O=S(=O)(NCc1ccc2c(c1)OCO2)c1cccc2cccnc12	-1.9	-7.7	-11.6	99.7	1.08	1.05
Cc1cc(NC(=O)CSc2ncn(-c3ccccc3)n2)no1	-1.7	-4.1	-14.9	97.5	1.05	0.97
CS(=O)(=O)N(CC(=O)NCCSc1ccc(Cl)cc1)c1ccc2c(c1)OCO2	-18.9	-1.3	-14.3	38.4	1.05	1.01
CCOC(=O)NC(Nc1sc2c(c1C(N)=O)CCCC2)(C(=O)OCC)C(F)(F)F (stereo not given)	-12.3	-3.2	-27.4	111.6	1.08	1.03
CCCn1nc(C(=O)Nc2cc(C(=O)OC)ccc2C)c2ccccc2c1=O	23.1	0.1	-0.7	104.2	1.11	1.05
O=C1CC(c2ccc(F)c(Br)c2)C2=C(CCCC2=O)N1 (stereo not given)	-14.9	-3.1	-12.1	86.5	1.05	0.98
CC1=C(C(=O)Nc2cccnc2)C(c2ccccn2)n2nnnc2N1 (stereo not given)	-0.9	1.3	-6.6	143.2	1.13	0.99
COC(=O)c1c(F)c(F)c(N2CCOCC2)c(F)c1F	8.9	-1.0	5.0	165.3	1	1.05
COc1ccc(C2=NOC(C(=O)NCc3ccc(F)cc3)C2)cc1 (stereo not given)	2.1	-0.3	3.7	107.6	1.16	1.01
COc1ccc(CCN2CC(O)=C(c3nc4ccccc4c(=O)[nH]3)C2=N)cc1OC	-2.4	-0.4	-4.9	86.7	2.33*	1
Cc1ccc(NC(=O)C2CC(c3ccc(F)cc3)=NO2)cc1 (stereo not given)	8.6	-0.3	2.8	127.3	1.1	0.99

Three compounds from above, ordered by the value under MKP-1 inh, ascending:
compound | MKP-1 inh
CCCCNc1nc2c(c(=O)n(C)c(=O)n2C)n1Cc1cccc(OC)c1 | -21.8
O=C1CC(c2ccc(F)c(Br)c2)C2=C(CCCC2=O)N1 (stereo not given) | -14.9
Cn1c(=O)c2c(nc(NCCCN3CCOCC3)n2Cc2cccc(Cl)c2)n(C)c1=O | -13.2

Other structures follow.
SMILES	MKP-1 inh	Hsp90 inh	Cdc25B block	Her2 expr inh	Fluor 339 460	A340 absorber
O=C(COC(=O)c1ccccc1C(=O)c1ccccc1)c1ccco1	-10.4	0.7	-1.6	87.8	1.03	0.99
CCN(C(=O)COC(=O)c1cccnc1SC)C1CCS(=O)(=O)C1 (stereo not given)	-0.8	0.9	-19.1	93.0	1.04	1.01
CCOC(=O)C(Oc1ccc(=O)[nH]n1)C(C)=O (stereo not given)	-7.8	-3.4	6.6	99.3	1.09	1.02
COCCCn1c(=N)c(C(=O)NCc2ccc3c(c2)OCO3)cc2c(=O)n3ccccc3nc21	-23.0	-7.0	5.9	70.3	1.23	1.05
O=C(NC1CS(=O)(=O)CC1NCc1ccccc1)c1ccccc1 (stereo not given)	10.9	-8.0	3.6	76.4	1.05	1.01
CCC(=O)N1CCN(CCN=CC2=C(O)CC(C)(C)CC2=O)CC1	4.6	1.0	-1.4	119.9	1.03	0.99
CCOC(=O)Cc1csc(NC(=O)c2c(O)c3ccccc3n(C)c2=O)n1	29.7	2.3	11.0	61.8	1.15	1.02
CSc1n[nH]c(NCc2cccs2)n1	6.5	-3.3	-1.5	115.4	1.11	0.98
O=C(CSc1nnc(-c2ccco2)n1Cc1ccccc1)NC(=O)NCc1ccccc1	9.9	0.0	-18.8	82.3	1.04	0.98
Cc1nn(C(C)C(=O)O)c2ccccc12 (stereo not given)	12.9	-7.0	-7.6	186.7	1.02	1.01
C=CCOc1nc2c(c(=O)n(C)c(=O)n2C)n1Cc1ccc(Cl)cc1Cl	-27.1	-4.4	1.3	110.5	1.16	1.02
O=C(C1CC(c2ccc(F)cc2)=NO1)N1CCCCC1 (stereo not given)	5.5	-0.9	-14.7	106.2	1.07	1.01
CCOC(=O)C1CCN(C(=O)c2ccc(SC)cc2OC)CC1	7.9	-2.4	-5.6	89.6	1.06	1.05
CC(C)OC(=O)c1c(F)c(F)c(N2CCOCC2)c(F)c1F	1.0	-3.0	-18.3	101.3	1.1	1.05

In the list so far, these contain an aryl thioether with sulfur outside any ring.
SMILES	MKP-1 inh	Hsp90 inh	Cdc25B block	Her2 expr inh	Fluor 339 460	A340 absorber
c1coc(-c2nnc(SCc3nc4ccccc4[nH]3)o2)c1	-16.2	-2.6	6.5	96.8	1.11	1
Cn1c(SCC(=O)NCc2ccco2)nnc1-c1ccc(S(=O)(=O)N2CCOCC2)cc1	-15.3	-9.5	1.5	106.0	1.17	1.03
Cc1cc(NC(=O)CSc2ncn(-c3ccccc3)n2)no1	-1.7	-4.1	-14.9	97.5	1.05	0.97
CS(=O)(=O)N(CC(=O)NCCSc1ccc(Cl)cc1)c1ccc2c(c1)OCO2	-18.9	-1.3	-14.3	38.4	1.05	1.01
CCN(C(=O)COC(=O)c1cccnc1SC)C1CCS(=O)(=O)C1 (stereo not given)	-0.8	0.9	-19.1	93.0	1.04	1.01
CSc1n[nH]c(NCc2cccs2)n1	6.5	-3.3	-1.5	115.4	1.11	0.98
O=C(CSc1nnc(-c2ccco2)n1Cc1ccccc1)NC(=O)NCc1ccccc1	9.9	0.0	-18.8	82.3	1.04	0.98
CCOC(=O)C1CCN(C(=O)c2ccc(SC)cc2OC)CC1	7.9	-2.4	-5.6	89.6	1.06	1.05
